2A firefly: FMDV 2A StopGo reporter, firefly signal. HEK cells with a luciferase reporter of 2A StopGo recoding. Potency, µM (doses to about 57.5 µM), inactives show top-dose signal change, negative = less light. hit rate 0.23% among 120,000; active = well fitted falling curve with a large enough effect; inconclusive = small, poorly fitted or top-dose-only effect; inactive = no such curve, though single readings can be large or run the other way; also: nearly all actives have a fitted effect of over 60% in size; overnight with compound
StopGo RLuc: lowers the Renilla signal of an FMDV 2A StopGo reporter; HEK cells with a luciferase reporter of 2A StopGo recoding; Potency, µM (series often up to 57.5 µM), inactives show at the highest dose signal change, negative = less light; hit rate 0.32% among 120,000; active means well fitted falling curve with a large enough effect; inconclusive means small, poorly fitted or top-dose-only effect; inactive means no such curve, though single readings can be large or run the other way; also: nearly all actives have a fitted effect of over 55% in size; overnight with compound
An asterisk follows results filed as active; u = inconclusive; & = joins results of further samples; [ ] = remark or other dose. % is scaled to controls: 0 for no effect and ±100 for the full control effect; potency is read from the fitted curve at half-maximal effect.

Screens in order – 2A firefly	StopGo RLuc
> CCN(CC)S(=O)(=O)c1ccc2nc(NC(=O)c3ccccc3OC)sc2c1
→ 0%	15%
> Cc1ccc2nc(C)cc(C(=O)NCc3ccco3)c2c1
→ -6%	-11%
> O=C(CSc1nc2ccccc2o1)Nc1nc(-c2ccc(Br)cc2)cs1
→ 143%[activator]	-5%
> COc1ccc(S(=O)(=O)N(Cc2nc(-c3cccc(C)c3)no2)C2CCCCC2)cc1
→ -5%	-4%
> COc1ccccc1NC(=O)Cn1c(SCC(=O)Nc2ccc(F)cc2)nc2ccccc21
→ 43%[activator]	16%
> O=C(CSc1nc2c([nH]c3ccccc32)c(=O)n1-c1ccc(F)cc1)N1CCCCCC1
→ 0%	-9%
> O=C(NCc1ccccc1)C(=O)NCC(c1ccco1)S(=O)(=O)c1cccs1 (configuration not stated)
→ u	-8%
> CN(C)c1ccc(/C=N/NC(=O)c2ccc(N(C)C)cc2)cc1
→ 57%[activator]	-17%
> CCOc1cccc2cc(C(=O)N3CCc4ccccc43)c(=O)oc12
→ 12%	57%[activator]
> Cc1ccc(C(=O)OC2CCCN(C)C2)cc1 (configuration not stated)
→ 13%	-16%
> CC(=O)OCCNC(=O)c1cc2ccccc2oc1=O
→ 22%	10%
> NC(=O)NNC(=S)NC1CCCCC1
→ 34%[activator]	5%
> COC(=O)C(C)OC(=O)/C=C/c1ccc2ccccc2n1 (configuration not stated)
→ 0%	-25%
> CC1CCC(NC(=O)C(=O)Nc2ccc(C(C)(C)C)cc2)CC1 (configuration not stated)
→ 2%	-9%
> CCOc1ccccc1CNC(=O)c1ccc2c(c1)sc1nc(-c3ccccc3)cn12
→ 40%[activator]	-20%
> CN1C(=S)CN=C(c2ccccc2)c2cc(Cl)ccc21
→ -15%[11.5 µM]	11%
> CCn1c(=O)cc(OCC(=O)NCc2ccccc2Cl)c2ccccc21
→ 42%[activator]	67%[activator]
> CCOC(=O)N1CCc2c(sc(NCc3cc(OC)c(OC)cc3OC)c2C(=O)Nc2ccc(OCC)cc2)C1
→ -9%	-9%
> COC(=O)C1CCN(c2nc3ccccc3nc2C(C#N)C(=O)NC2CCCC2)CC1 (configuration not stated)
→ 2%	-4%
> COc1ccc(NC(=O)Cn2nc(C(F)(F)F)c3c2CCCC3)cc1OC
→ -5%	-7%

Screens in order – 2A firefly	StopGo RLuc
> Cc1ccc2c(CN(C)CCOc3ccccc3F)cc(=O)oc2c1C
→ 20%	12%
> Cc1[nH]c2ccccc2c1C(=O)COC(=O)C(C)C
→ 17%	-4%
> CCOc1ccc(NC(=O)c2c(NC(=O)CN3CCCC(C)C3)sc3c2CCC3)cc1 (configuration not stated)
→ 13%	-6%
> CCN(CC)C(=O)Oc1ccc2c(C)c(-c3ccccc3)c(=O)oc2c1
→ 0%	u
> COC(=O)c1ccc(CO/N=C/c2ccc(Cl)cc2Cl)cc1
→ 7.9µM*	9%
> CCOC(=O)c1c(C)[nH]c(CCC(=O)NCc2cc(Br)ccc2OC)c1C
→ -3%	8%
> CCOc1ccccc1NC(=O)c1cn(C)c2ccccc12
→ 57%[activator]	18%
> CCCn1c(=O)n(CCC(=O)NC2(c3noc(C)n3)CCCCC2)c2ccccc21
→ 25%	22%
> COc1cccc(CSc2nc(-c3ccccc3OC)nc3c2Cc2c(CO)cnc(C)c2O3)c1
→ -20%	-12%
> CC(=O)N1CCN(c2ncnc3c2c(-c2ccccc2)cn3-c2cccc(C)c2)CC1
→ -8%	-7%
> Cn1c(=O)c2c(ncn2CC(=O)Nc2ccccc2C(=O)NCC2CCCO2)n(C)c1=O (configuration not stated)
→ -6%	-14%
> O=C(NCc1cccc(Cl)c1)C1CCN(c2ncnc3nc[nH]c23)CC1
→ 18%	7%
> CN1CCC(N(C)S(=O)(=O)c2ccc(NC(=O)c3cc4c(F)cccc4s3)cc2)CC1
→ 14%	2%
> CS(=O)(=O)Cc1cccc(C(=O)N2CCN(CCc3ccccc3)CC2)c1
→ -5%	-8%
> O=Cc1ccc(-c2cccnc2)o1
→ -5%	-5%
> O=C(c1ccc(-c2ccccc2)cc1)c1cc2ccccc2o1
→ 168%[activator]	9%
> Cc1cccc(NC(=O)CSc2nc(-c3ccco3)nc3cc(=O)[nH]n23)c1
→ -12%	3%
> c1ccc(Nc2nc(CSc3nnnn3C3CCCC3)cs2)cc1
→ -9%	-13%
> CCN(C(=O)CSc1ncc2c(n1)-c1cc(Cl)ccc1N(Cc1ccccc1)S2(=O)=O)c1cccc(C)c1
→ -21%	-15%
> COc1ccc(C2(c3ccc(OC)cc3)C=Cc3c(ccc4ccc(O)cc34)O2)cc1
→ -3%	-16%

Looked up by compound from the entries so far, six records:
Screens in order – 2A firefly	StopGo RLuc
> COc1ccc(C2(c3ccc(OC)cc3)C=Cc3c(ccc4ccc(O)cc34)O2)cc1
→ -3%	-16%
> CCCn1c(=O)n(CCC(=O)NC2(c3noc(C)n3)CCCCC2)c2ccccc21
→ 25%	22%
> COc1ccc(S(=O)(=O)N(Cc2nc(-c3cccc(C)c3)no2)C2CCCCC2)cc1
→ -5%	-4%
> Cc1[nH]c2ccccc2c1C(=O)COC(=O)C(C)C
→ 17%	-4%
> O=Cc1ccc(-c2cccnc2)o1
→ -5%	-5%
> O=C(NCc1ccccc1)C(=O)NCC(c1ccco1)S(=O)(=O)c1cccs1 (configuration not stated)
→ u	-8%

Next records follow:
Screens in order – 2A firefly	StopGo RLuc
> CC1=Nc2cc(C(=O)N3CCCCC3)ccc2Sc2ccc(C)cc21
→ 46%[activator]	8%
> Oc1ccc(-c2nc(-c3ccc(Cl)s3)cs2)cc1
→ 270%[activator]	17%
> COc1ccccc1CCNC(=O)C(=O)NCC(c1cccs1)S(=O)(=O)c1ccc(F)cc1 (configuration not stated)
→ -25%	-12%
> O=C(CSc1ncnc2sc3c(c12)CCCC3)Nc1cccc(F)c1
→ 10%	-12%[1.06 µM]
> COc1ccc(Nc2ccccc2)cc1
→ 64%[activator]	-7%
> COc1ccc(CNC(=O)CC2N=C3c4ccccc4N=C(SCC(=O)Nc4ccc(N(C)C)cc4)N3C2=O)cc1 (configuration not stated)
→ u	0%
> COc1ccccc1C(=O)Nc1cccc(OCc2cc(=O)n3ccccc3n2)c1
→ 30%&-6%	7%&-9%
> Cc1cccc(-c2c3c(=O)n(C)c(=O)n(C)c3c3cnc4ccccc4n23)c1
→ -7%	-9%
> Cc1c(CNC2CCCCCC2)c(C(=O)O)c(C)n1Cc1cccc(Cl)c1
→ -5%	50%[activator]
> Cc1cccc(-c2nc(CCNC(=O)c3ccc(Br)o3)cs2)c1
→ -19%	-11%
> CN(c1ccccc1)S(=O)(=O)c1c(-c2cccc(F)c2)csc1C(=O)NCc1ccccc1
→ u	37%[activator]
> Cc1ccc(S(=O)(=O)N2CCN(C(=O)NC(C)CCc3ccccc3)CC2)cc1 (configuration not stated)
→ -10%	-2%
> CCc1nn(-c2ccccc2)c2nc(-c3ccccc3OC)c3cc(OC)c(OC)cc3c12
→ -9%	-14%
> CCc1ccccc1NC(=O)CCc1c[nH]c2ccccc12
→ 16%	-3%
> CCN(Cc1cccs1)C(=O)/C=C/c1cccnc1
→ 20%	-6%
> Cc1cc(C)c(S(=O)(=O)N2CCN(Cc3ccc4c(c3)OCO4)CC2)cc1C
→ -18%	10%
> O=C(NCCc1csc(-c2ccc(C(F)(F)F)cc2)n1)C(=O)Nc1ccccc1F
→ 2%	-3%
> Cc1ccc(Oc2cc(C#N)c(C#N)cc2Oc2ccc(C)c(C)c2)cc1C
→ 0%	8%
> CCOC(=O)CNC(=O)c1cc(-c2ccc(Cl)cc2)nc2ccccc12
→ -15%	-18%
> O=C(NCCc1ccc(Cl)cc1)c1ccc2c(c1)nc1n2CCOC1
→ 58%[activator]	-13%

Overlap with the part before: 6 compounds, then new ones.
Screens in order – 2A firefly	StopGo RLuc
> CCN(Cc1cccs1)C(=O)/C=C/c1cccnc1
→ 20%	-6%
> Cc1cc(C)c(S(=O)(=O)N2CCN(Cc3ccc4c(c3)OCO4)CC2)cc1C
→ -18%	10%
> O=C(NCCc1csc(-c2ccc(C(F)(F)F)cc2)n1)C(=O)Nc1ccccc1F
→ 2%	-3%
> Cc1ccc(Oc2cc(C#N)c(C#N)cc2Oc2ccc(C)c(C)c2)cc1C
→ 0%	8%
> CCOC(=O)CNC(=O)c1cc(-c2ccc(Cl)cc2)nc2ccccc12
→ -15%	-18%
> O=C(NCCc1ccc(Cl)cc1)c1ccc2c(c1)nc1n2CCOC1
→ 58%[activator]	-13%
> CCOC(=O)c1c(C)oc2c(Cl)cc(NS(=O)(=O)c3ccc(Cl)c(C)c3)cc12
→ 1%	115%[activator]
> Cc1ccc(OCC(=O)NCc2cccc(NC(=O)C3CC3)c2)c(Br)c1
→ 17%	11%
> O=C(NCc1ccco1)c1ccc2c(c1)N(Cc1ccc(F)cc1)C(=O)c1ccccc1S2=O (configuration not stated)
→ -1%	62%[activator]
> Cc1c(C(=O)CSc2nnc(C3CC3)n2C2CC2)oc2ccccc12
→ 115%[activator]	16%
> CCn1c(=O)n(-c2ccc(F)c(Cl)c2)c(=O)c2c3c(sc21)CN(C(C)=O)CC3
→ 20%	18%
> Cc1ccc(C(=O)c2cn(Cc3cccc(C)c3)c3nc(C)ccc3c2=O)cc1
→ -13%	0%
> COc1ccc(N2CCN(C(=O)Cn3c(-c4cccs4)cc4ccccc43)CC2)cc1
→ -7%	33%
> CN(C(=O)CSc1nc2ncccc2o1)c1ccc(F)cc1
→ -20%	u
> CSC1=C(C#N)C(c2ccc(C)cc2)C2=C(CCCC2=O)N1 (configuration not stated)
→ 13%	44%[activator]
> CCc1nc(SCc2cc(=O)c3cc(F)ccc3[nH]2)n[nH]1
→ 2%	-10%
> O=C(CCc1nc2sc3c(c2c(=O)[nH]1)CCCC3)N1CCCCC1
→ 14%	-7%
> O=C(CSc1nnc(-c2ccc(Cl)cc2)n1CC1CCCO1)Nc1ccccc1 (configuration not stated)
→ 52%[activator]	145%[activator]
> CCNc1nc(-c2ccc3c(c2)CCC(=O)N3)cs1
→ 184%[activator]	4%
> CCOc1ccc(N2CC(NC(=O)C3CC3)CC2=O)cc1 (configuration not stated)
→ -9%	-4%
> CN1C(C(=O)NC2CCCCC2)=CC(c2cccs2)=NS1(=O)=O
→ 0%	97%[activator]
> O=C(COC(=O)c1ccc2ccccc2n1)Nc1ccc(F)c(F)c1
→ 30%	-2%
> CCOC(=O)c1oc2cc(OC(=O)c3ccco3)ccc2c(=O)c1-c1ccc(Br)cc1
→ 21%	0%
> CN(C)CCCn1c(=O)n(-c2ccc(Cl)cc2)c(=O)c2c3c(sc21)CN(C)CC3
→ -27%	-27%
> Cc1oc(-c2cccs2)nc1CC(=O)Nc1cccc(C(=O)N(C)C)c1
→ -3%	3%
> CCCCCCCCS(=O)(=O)CCO
→ 7%	-8%

Screens in order – 2A firefly	StopGo RLuc
> O=C(NCc1cccnc1)c1cn(Cc2ccccc2)c2ccccc12
→ -4%	22%
> Cn1c(=O)c2c(nc(N)n2CC(O)COc2ccccc2)n(C)c1=O (configuration not stated)
→ 9%	-9%
> Cc1cc(F)ccc1S(=O)(=O)Nc1ccc(N2CCCC2)c(F)c1
→ 13%	215%[activator]
> O=C(COc1ncnc2c1cnn2-c1ccccc1)NC1CCS(=O)(=O)C1 (configuration not stated)
→ 2%	1%
> COc1ccc(CNC(=O)c2cc3c(=O)n(Cc4ccco4)ccc3nc2C)cc1
→ -10%	-6%
> CCN(c1ccccc1)S(=O)(=O)c1ccc(NC(=O)c2cc(=O)c3cc(C)c(C)cc3o2)cc1
→ -14%&-15%	-7%&-2%
> CC1CCC(NC(=O)CSc2nnc(C(C)C)o2)CC1 (configuration not stated)
→ 50%[activator]	-7%
> NC(=O)c1ccc(OCc2ccccc2)cc1
→ 214%[activator]	6%
> COC(=O)CCNC(=O)N1CCc2[nH]cnc2C1c1ccc(Br)cc1 (configuration not stated)
→ 0%	6%
> COc1ccc(Br)cc1COc1ccc(C#N)cc1
→ 15%	17%
> CSc1cccc(N=Cc2ccc(-c3ccccc3Cl)o2)c1
→ 0%	10%
> COC(=O)CC(NC(=O)c1cccc(F)c1)c1ccc(OC)c(OC)c1 (configuration not stated)
→ 10%	4%
> CCOc1ccc(NC(=O)c2c(NCc3ccc(C)o3)sc3c2CCCCC3)cc1
→ 4%	-5%
> Cc1cccc(NC(=O)C(=O)NCC(c2ccc3c(c2)OCO3)N2CCN(c3ccccc3)CC2)c1 (configuration not stated)
→ -8%	-9%
> O=C(NCCc1ccccc1)c1ccc2c(c1)CCN2S(=O)(=O)c1ccc(Br)cc1
→ -4%	-10%
> Cc1cccc(C(=O)Nc2nnc(S(=O)(=O)N3CCCc4ccccc43)s2)c1
→ 8%	-8%
> CCc1cccc(NC(=O)CN2C(=O)COc3ccc(S(=O)(=O)N4CCC(C)CC4)cc32)c1
→ -12%	7%
> CCOc1cccc(CNCc2cccs2)c1OCc1ccccc1
→ 13%	4%
> O=C(NCCCN1CCN(c2ccccc2F)CC1)c1ccc2nc(Cc3ccccc3)oc2c1
→ u	u
> Cc1cc2c(n1-c1ccc(C(=O)NCc3cccc(Br)c3)cc1)CCC(C)C2 (configuration not stated)
→ 64%[activator]	59%[activator]

Screens in order – 2A firefly	StopGo RLuc
> COc1ccc(-c2nc(CNC(=O)NC3CCCCC3)c(C)o2)cc1
→ -16%	17%
> Cc1ccc(C)c(N(C)C(=O)c2cc3c(s2)-c2ccccc2OC3)c1
→ -9%	-12%
> O=C(Cc1c[nH]c2ccccc12)NCCc1c[nH]c2ccc(F)cc12
→ 14%	37%[activator]
> COCCN1Cc2cccc(C(=O)Nc3ccc(C(=O)OC)cc3)c2C1=O
→ 11%&-5%	8%&-2%
> N#CCCn1nc(-c2ccc(F)cc2)c2ccccc2c1=O
→ 10%	-1%
> Cc1ccc(-n2ncc(C(=O)NC3CCCCC3)c2N)cc1
→ 0%	-9%
> O=C1CSc2ccc(C(=O)Nc3ccc4c(c3)OCCO4)cc2N1
→ 49%[activator]	8%

Source: PubChem BioAssay (National Center for Advancing Translational Sciences (NCATS))

An excerpt; rates above refer to the full screens.
